Screening data from PubChem BioAssay.
Mtb MenB inh: M. tuberculosis MenB inhibitors, primary screen, biochemical, absorbance. 1,4-dihydroxy-2-naphthoyl-CoA synthase (Mycobacterium tuberculosis (strain ATCC 25618 / …. MenB enzyme assay, absorbance read-out; some hits fall short of the stated cut. inhibition, %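 (about 12 µg/mL by stock and volumes)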. 100,000 compounds, 0.43% hits. AID 540299, 2011;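 active = mean of two replicates above 30%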;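 note: 0% = no compound and 100% = wells with inactive enzyme; the first replicate is given; strong numbers were not always called active; inactives centre near -10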
Target sequence (P9WNP5 whole entry, looked up): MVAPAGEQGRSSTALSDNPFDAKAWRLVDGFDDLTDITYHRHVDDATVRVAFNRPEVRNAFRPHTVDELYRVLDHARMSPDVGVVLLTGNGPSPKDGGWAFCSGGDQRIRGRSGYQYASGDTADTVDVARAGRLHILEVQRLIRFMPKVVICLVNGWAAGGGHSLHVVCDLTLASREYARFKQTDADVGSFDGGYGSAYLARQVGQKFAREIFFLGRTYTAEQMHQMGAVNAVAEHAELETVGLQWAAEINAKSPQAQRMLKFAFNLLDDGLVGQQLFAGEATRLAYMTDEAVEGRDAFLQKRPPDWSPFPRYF
Mtb MbtI inh: MbtI salicylate synthase inhibitors, primary screen, biochemical, fluorescence intensity | 100,000 compounds, 0.89% hits | AID 493033, 2011 | P9WFX0 | inhibition, %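 (about 17 µg/mL by stock and volumes)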 | purified MbtI enzyme, fluorescence intensity read-out;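 active = above 50% in both replicates, above 80% if mildly self-fluorescent; inactive = the rest, strongly fluorescent compounds included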;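 note: 0% = mean of negative and 100% = mean of positive controls; one replicate is shown; some compounds called inactive have numbers as strong as hits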
Polio RdRp inh: poliovirus RdRp elongation inhibitors, primary screen, biochemical, fluorescence polarization, total intensity; Genome polyprotein (Poliovirus type 1 (strain Mahoney)), P03300; poliovirus polymerase elongation; active compounds read low; % elongation, % (compound at 16.7 µg/mL); 150,000 compounds, 0.66% hits; in the data active = % elongation below about 90%; note: some results filed as inactive read as strong as hits
Target sequence (P03300 1749-2209 limits assumed): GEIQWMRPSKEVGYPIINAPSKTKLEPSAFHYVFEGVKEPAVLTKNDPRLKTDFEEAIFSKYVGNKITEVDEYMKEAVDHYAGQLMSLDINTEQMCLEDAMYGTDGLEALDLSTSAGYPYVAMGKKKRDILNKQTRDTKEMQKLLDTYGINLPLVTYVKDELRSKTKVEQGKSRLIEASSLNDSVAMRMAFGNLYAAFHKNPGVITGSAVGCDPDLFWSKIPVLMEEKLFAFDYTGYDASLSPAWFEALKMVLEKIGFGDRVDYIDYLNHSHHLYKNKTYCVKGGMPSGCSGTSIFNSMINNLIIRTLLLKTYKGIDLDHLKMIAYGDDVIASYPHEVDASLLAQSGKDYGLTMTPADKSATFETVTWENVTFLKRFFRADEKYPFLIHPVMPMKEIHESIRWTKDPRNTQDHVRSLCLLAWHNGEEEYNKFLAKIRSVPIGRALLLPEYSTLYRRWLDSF
Polio RdRp inh intensity: also measured in Polio RdRp inh; calls as there; % elongation; measured here: total intensity read-out; formula for this scale not given here;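 total fluorescence in place of polarization; lower means less elongation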
The depositor's hits bear a star; · = not tested or not shown. Compounds were not picked by outcome. Share with any hit: about 1.9%.

The line under a structure holds: Mtb MenB inh	Mtb MbtI inh	Polio RdRp inh	Polio RdRp inh intensity
O=C1O[C@@H]2C[C@H]3C[C@@H]2[C@@H]1[C@H]3C(=O)N1CCCc2ccccc21
    5	-9	102	106
CN(CC(=O)N1CCOCC1)c1ncnc2scc(-c3ccc(F)cc3)c12
    -13	17	·	·
Cc1cc(C)cc(N(CC(=O)NCc2ccco2)C(=O)c2snc(C(N)=O)c2N)c1
    -76	-25	102	99
CN(C)S(=O)(=O)c1ccc(=O)n(CC(=O)c2c[nH]c3ccccc23)c1
    -30	-5	110	115
CCOc1ccc2c(c1)c1nnc(SCC3CCCO3)nc1n2C (stereo not given)
    -18	-21	101	99
CC1CCN(C(=O)CCC(=O)c2ccc3c(c2)OCCCO3)CC1
    -17	-15	102	98
COc1ccc(NC(=O)c2ccc3snnc3c2)cc1
    -3	6	102	101
CCc1ccc(NC(=O)CCC(=O)c2ccccc2)cc1
    ·	-8	98	93
CCOC(=O)C1CCN(S(=O)(=O)c2c(C)n(C)c(=O)n(C)c2=O)CC1
    7	1	103	97
Cc1ccc(Cn2c(C)cc(C)c(C#N)c2=O)cc1
    -9	-6	104	106
CN(C)CCN(Cc1ccc(Cl)cc1)c1ccccn1
    0	-13	101	101
CC(=O)NC(=S)N[C@@H]1O[C@H](COC(C)=O)[C@@H](OC(C)=O)[C@H](OC(C)=O)[C@H]1OC(C)=O
    -16	-10	103	102
COc1cccc(NC(=O)C(Sc2nnc(-c3ccccc3)o2)c2ccccc2)c1 (stereo not given)
    -42	-84	104	102
N#CC1=C(N)C(C#N)(C#N)[C@@H](c2cccc(Cl)c2)[C@@H]2CSCC=C12
    -7	·	119	126
O=C1CSC(=O)N1CNc1cc(Cl)ccc1Cl
    9	-5	102	103
CCn1c(=NC(=O)CSCC(=O)Nc2nc(-c3ccccc3)cs2)sc2ccccc21
    -35	16	103	106
CCOC(=O)c1cnc2cc(-c3ccccc3)[nH]n2c1=O
    -1	·	105	102
Cn1nc(-c2ccc(S(=O)(=O)NCc3cccs3)s2)cc1C(F)(F)F
    -6	0	100	109
CCOC(=O)c1oc2ccc(Br)cc2c1COC(=O)CCn1c(C)csc1=O
    4	3	106	104
CCCN(CCC)C(=O)c1c[nH]c2ccc(S(=O)(=O)Nc3ccc(CC)cc3)cc2c1=O
    -3	-38	102	105

Overlap with the part before: 2 entries; new compounds follow.
The line under a structure holds: Mtb MenB inh	Mtb MbtI inh	Polio RdRp inh	Polio RdRp inh intensity
CCOC(=O)c1oc2ccc(Br)cc2c1COC(=O)CCn1c(C)csc1=O
    4	3	106	104
CCCN(CCC)C(=O)c1c[nH]c2ccc(S(=O)(=O)Nc3ccc(CC)cc3)cc2c1=O
    -3	-38	102	105
COCC(C)NCc1cccc2ccccc12 (stereo not given)
    10	·	108	105
Cc1cccc(-n2c(C)cc(C=NO)c2C)c1
    -7	-2	99	100
COC(Cn1c(-c2ccccc2)cc(C2=C(O)CC(C)(C)CC2=O)c1-c1ccccc1)OC
    -19	-7	100	108
O=S(=O)(NCc1ccccc1Cl)c1ccc2nc(-c3ccccc3)[nH]c2c1
    -13	108	102	104
O=C(c1ccco1)n1c(=S)nc2ccccn21
    -16	·	83*	82*
CC(=O)Nc1ccc(C2Nc3ccccc3C(=O)N2C2CCCCC2)cc1 (stereo not given)
    -14	115	104	104
CC(=O)Nc1ccc(NC(=O)C(C)OC(=O)c2c3c(nc4ccccc24)CCN(C)C3)cc1 (stereo not given)
    -2	7	99	114
CCN(CC)Cc1c(CC(C)C)oc(C)c1C(=O)O
    -17	·	100	107
CN(Cc1ccccc1)C(=O)C1CCN(c2nnc(-n3cccc3)s2)CC1
    -10	-5	102	105
O=C(NN1C(=O)c2cccc3cccc(c23)C1=O)c1ccn[nH]1
    -50	176	103	103
O=C1CCCC(O)=C1C=NCCCn1ccnc1
    -19	26	80	128
CCC(=O)c1ccc(N2CCCCC2)c(F)c1
    14	8	101	102
CC1CN(C)C(C)c2c1oc1ccc(N)cc21 (stereo not given)
    -51	-119	100	102
CC(C)CCNC(=O)C1(C)CCC(=O)N1Cc1ccccc1Cl (stereo not given)
    -15	-2	105	104
O=C(CSc1nc2c(c(C(F)(F)F)n1)CCc1ccccc1-2)N1CCCCC1
    -4	10	101	102
Cn1c(SCc2cc(F)cc(F)c2)nnc1-c1ccc2nonc2c1
    -20	1	101	90
Cc1cc(NC(=O)NC(=O)c2ccccc2)no1
    -1	-8	102	104
CCC(C)NC(=O)c1cccc(N2CCCC2=O)c1 (stereo not given)
    15	-1	101	104
C/C(C#N)=C(/N)c1ccccc1
    ·	10	106	104
CCC(=O)Nc1cccc(-c2nc3cccnc3s2)c1
    -3	104	99	103
Cc1ccccc1Cn1c(CCCO)nc2ccccc21
    ·	5	99	91
OC1CCCN(CC(O)COc2ccc(-c3ccccc3)cc2)C1 (stereo not given)
    -21	1	97	106
CC(C)c1ccc(NC(=O)CN(C)S(=O)(=O)c2cnc[nH]2)cc1
    -15	-7	103	103
Cn1c(=O)c(-c2[nH][nH]c(=O)c2/C=C2/C=Nc3ccccc32)c(O)c2ccccc21
    -101	·	108	114
O=C(CSC1=Nc2ccccc2C2=NC(Cc3ccccc3)C(=O)N12)c1ccc(F)cc1 (stereo not given)
    -2	12	101	98
O=C(CSc1ccc2ccccc2c1)N1CCOCC1
    -6	7	99	99
Cc1cc(NC(=O)CCC(=O)Nc2cc(C)on2)no1
    -25	-5	102	103
CC(C)NC(=O)CSc1nnc(Cc2ccccc2)n1C
    -31	-7	102	101
CN(Cc1ccccc1)C(=O)c1ccccc1C(=O)N1CCN(c2ncccn2)CC1
    -15	4	104	105
CC(=O)NC1C(=O)N=C(SCC(=O)Nc2cccc3ccccc23)NC1=O (stereo not given)
    -34	34	101	98
Cn1c(CC(=O)Nc2ccccc2F)nnc1SCC(=O)NC1=NCCS1
    -25	-5	104	103
Nc1nonc1C(=O)N/N=C/c1ccccc1
    -16	19	104	102
COc1ccc(-c2cn3c(n2)sc2cc(C(=O)N4CCC5(CC4)OCCO5)ccc23)cc1
    -11	-113	101	103
COC(=O)C1CC(=O)N(c2ccccc2)C1 (stereo not given)
    -23	-19	106	101
CC1(C)C/C(=N\O)c2cc3c(nc2C1)CCCC3
    29	-1	101	103
CN1CCN(C(=O)NCC23CC4CC(CC(C4)C2)C3)CC1
    7	2	103	100
Cc1ccc2nc(SC3CCCCC3=O)[nH]c2c1 (stereo not given)
    8	6	101	97
Fc1ccc(CN2CCc3nc(Nc4ccc(F)cc4)ncc3C2)cc1
    5	21	101	104
Cc1ccc(C)c(C(=O)CSc2nnc(-c3cccs3)n2CC2CCCO2)c1 (stereo not given)
    -15	5	104	107
O=C(Nc1ncnc2sc3c(c12)CCCCC3)c1ccco1
    -7	·	104	107
CC(C)=NNC(=O)Nc1c(-c2c(Cl)cccc2Cl)noc1C
    2	-9	100	101
COc1cc2c(cc1OC)CC(C(=O)O)NC2 (stereo not given)
    32*	-2	103	101
CCOC(=O)C1=C(C)NC(SCc2ccc(C(=O)O)cc2)=NC1c1ccc(OCC)cc1 (stereo not given)
    -16	7	101	96
Cc1cc(C(=O)Nc2cccnc2)no1
    -8	-4	99	102
COc1ccc(CCNC(=O)c2cn(C3CCCC3)c(=O)c3c2c2ccccc2n3C)cc1OC
    -25	-61	103	108
CC(NC(=O)/C=C/c1cccc2ccccc12)c1ccccc1 (stereo not given)
    -2	·	104	98
O=C(O)c1ccc(COc2ccccc2/C=C2\NC(=O)N(Cc3ccccc3)C2=O)cc1
    -6	-118	100	103
COc1cccc(OCC(=O)Nc2ccc(OC(C)=O)cc2C(=O)O)c1
    -5	5	103	102
COc1cc(COc2ccc3c4c(c(=O)oc3c2)CCC4)cc(OC)c1OC
    7	2	102	105
COc1ccccc1N1CCN(Cc2cc(=O)oc3cc(C)c(Cl)cc23)CC1
    -5	-8	102	108
CSc1ccc(S(=O)(=O)Nc2ccc(N3CCOCC3)c(Cl)c2)cc1
    -10	·	105	108
CC1CC(CCC(=O)Nc2ccc(S(N)(=O)=O)cc2)C(=O)O1 (stereo not given)
    -3	-11	103	107
Fc1c(F)c(C(F)(F)F)c(F)c2c1Oc1cc(Cl)c(Cl)cc1O2
    5	22	105	98
CCOCc1nnc(NC(=O)C2CC(=O)N(C(C)(C)C)C2)s1 (stereo not given)
    1	25	102	102
Cc1cc(C(=O)COC(=O)c2ccc(O)cc2)c(C)n1CC1CCCO1 (stereo not given)
    -42	7	104	104
O=C1Cc2ccccc2C(=O)N1c1cccc(Cl)c1
    -35	0	78*	86*
Cc1cccc(C(=O)Nc2ccccn2)c1
    -8	57	104	114
c1coc(CNc2ncnc3sc4c(c23)CCCC4)c1
    -1	2	106	101
COC(=O)c1c(NC(=S)NCc2ccco2)sc2c1CCC(C)C2 (stereo not given)
    -18	-3	101	103
CCOC(=O)CSc1c(-c2cccs2)[nH]c2ccccc12
    -1	·	111	113

(listing goes on)
The line under a structure holds: Mtb MenB inh	Mtb MbtI inh	Polio RdRp inh	Polio RdRp inh intensity
O=C(OCc1cccs1)c1ccco1
    ·	-8	102	98
CC1CCCN(C(=O)c2cccc3c2SCCC3=O)C1 (stereo not given)
    -3	-8	104	101
CN(C)CCNC(=O)c1nc(-c2cccnc2)no1
    -20	-17	106	109
CCCc1c(C)nc(N)c(C#N)c1-c1ccc(OC)c(OC)c1
    -8	-214	100	102
CCOc1ccc(N(C)S(=O)(=O)c2ccc3[nH]cc(C(=O)NCC4CCCO4)c(=O)c3c2)cc1 (stereo not given)
    -1	-10	103	99
Fc1c(F)c(Oc2ccccc2)c(F)c(F)c1Oc1ccccc1
    27*	-4	102	101
COc1ccc2[nH]cc(CCNC(=O)NC3CCCCC3)c2c1
    -14	10	103	103
CCc1ccc(NC(=O)c2cc3cc4ccc(OC)cc4nc3o2)cc1
    -10	3	100	107
Cc1nc2ccccc2c(=O)n1/N=C/c1ccc2ncccc2c1
    -5	·	102	107
CC(C)NC(=O)n1cc(F)c(=O)[nH]c1=O
    4	·	98	99
CN1C(=O)c2ccc(N)cc2C1=O
    -74	-28	98	113
O=C1c2ccccc2C(=O)N1N1C(=O)c2ccccc2C1=O
    -12	-9	102	105
Cc1ccc(C)c(N2CCN(CC(=O)c3ccc4c(c3)CCN4)CC2)c1
    2	7	100	96
O=C(/C=C/c1ccco1)OCN1C(=O)c2ccccc2C1=O
    -29	-6	101	108
O=C1c2ccccc2C(=O)N1CN1C(=O)c2ccccc2C1=O
    -15	0	·	·
Cc1ccc2occ(CC(=O)Nc3ccc(OC(F)F)cc3)c2c1
    -23	1	102	104
CC(c1ccco1)N(C(=O)c1cccnc1Cl)c1ccccn1 (stereo not given)
    ·	97	101	99
C=CCn1c(SCc2ccc(Cl)cc2)nc2cc(C(=O)NCc3ccco3)ccc2c1=O
    -18	-1	99	100
CCC(C)n1c(N)c(C#N)c2nc3ccccc3nc21 (stereo not given)
    ·	-267	99	106

In the list so far, these have fluorine.
The line under a structure holds: Mtb MenB inh	Mtb MbtI inh	Polio RdRp inh	Polio RdRp inh intensity
CN(CC(=O)N1CCOCC1)c1ncnc2scc(-c3ccc(F)cc3)c12
    -13	17	·	·
Cn1nc(-c2ccc(S(=O)(=O)NCc3cccs3)s2)cc1C(F)(F)F
    -6	0	100	109
CCC(=O)c1ccc(N2CCCCC2)c(F)c1
    14	8	101	102
O=C(CSc1nc2c(c(C(F)(F)F)n1)CCc1ccccc1-2)N1CCCCC1
    -4	10	101	102
Cn1c(SCc2cc(F)cc(F)c2)nnc1-c1ccc2nonc2c1
    -20	1	101	90
O=C(CSC1=Nc2ccccc2C2=NC(Cc3ccccc3)C(=O)N12)c1ccc(F)cc1 (stereo not given)
    -2	12	101	98
Cn1c(CC(=O)Nc2ccccc2F)nnc1SCC(=O)NC1=NCCS1
    -25	-5	104	103
Fc1ccc(CN2CCc3nc(Nc4ccc(F)cc4)ncc3C2)cc1
    5	21	101	104
Fc1c(F)c(C(F)(F)F)c(F)c2c1Oc1cc(Cl)c(Cl)cc1O2
    5	22	105	98
Fc1c(F)c(Oc2ccccc2)c(F)c(F)c1Oc1ccccc1
    27*	-4	102	101
CC(C)NC(=O)n1cc(F)c(=O)[nH]c1=O
    4	·	98	99
Cc1ccc2occ(CC(=O)Nc3ccc(OC(F)F)cc3)c2c1
    -23	1	102	104
